Bioassay records deposited in PubChem by National Center for Advancing Translational Sciences (NCATS).
miR-21 reporter: qHTS Assay for Modulators of miRNAs and/orActivators of miR-21 | HeLa miR-21 FLuc reporter, luciferase, 48 h | Potency, µM (series often up to 38.3 µM), for inactives: top-dose reporter change, positive = more light | 340,000 tested, under 10 active | AID 2288, 2010; active = well fitted rising curve with a large enough effect; inconclusive = small, poorly fitted or top-dose-only effect; inactive = no such curve, though single readings can be large or run the other way;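 also: % of control where 0% means no effect; miR-21 action dims this reporter so a rising signal means less miR-21 action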
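HeLa cells stably expressing CMV-driven firefly luciferase with a downstream miR-21 binding sequence, endogenously expressing miR-21, were treated with titrations (up to about 40uM final) for 48 hours at 37 degree Celsius. Luciferase luminescence was read after lysis.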
The depositor's hits bear a star; ? = inconclusive.

no. | Molecule | miR-21 reporter
1 | Cc1cc(Nc2cccc(Cl)c2)nc2ccc(NC(=O)c3cncc(Br)c3)cc12 | ?
2 | CCCCN(CCCC)CCCNC(=O)c1ccc2nc(N3CCCCC3)sc2c1 | -52%
3 | Cn1c(=O)c(C(=O)O)nn(-c2ccccc2)c1=O | 3%
4 | CCOc1ccc(-c2cc3c(=O)n(CC(=O)NCc4ccc(Cl)cc4)ccn3n2)cc1 | -26%
5 | Cc1ccc(S(=O)(=O)c2c(Nc3cc(F)ccc3F)sc(C(=O)c3ccc(F)cc3)c2N)cc1 | 24%
6 | CC(C)c1ccc(-c2nc(C(N)=O)c3c(n2)n(-c2ccc4c(c2)OCO4)c(=O)n3C)cc1 | -3%
7 | CCOC(=O)c1sc2ccccc2c1S(=O)(=O)N1CCN(c2cccc(C)c2)C(C)C1 (centres undefined) | -3%
8 | CCCCCn1c(=O)[nH]c2cc(C(=O)Nc3cc(C)cc(C)c3)ccc2c1=O | 3%
9 | CCc1nn(CC(=O)NCCc2ccc(Cl)cc2)c(=O)c2cc3c(OC)cccc3n12 | -4%
10 | COC(=O)c1ccccc1NC(=O)CSc1nc2ccccc2nc1Cc1ccc(F)cc1 | -1%
11 | Cc1nn2c(=O)cc(COC(=O)c3cccc(NC(=O)c4ccc(C(C)(C)C)cc4)c3)nc2s1 | ?
12 | O=C(Cn1c(=O)n(CC2CCC(C(=O)NCCc3ccccc3)CC2)c(=O)c2ccccc21)Nc1ccccc1 (centres undefined) | -1%
13 | Cc1c(C(=O)Nc2ccc(F)cc2F)oc2c1-c1nn(Cc3c(F)cccc3Cl)cc1CC2 | -1%
14 | CCOc1ccc(NC(=O)N2CCN3CCCCC3C2)cc1 (centres undefined) | 2%
15 | Clc1ccc2c(c1)-c1c(cnc3cc(-c4ccccc4)nn13)CO2 | -11%
16 | CC12CN3CC(c4ccccc4)(CN(C1)C3c1ccc(Cl)cc1)C2=O (centres undefined) | 12%
17 | COc1ccccc1NC(=O)c1cnn(-c2ccccc2)c1-n1cccc1 | -5%
18 | COc1ccc2c(Sc3ccc(C)cc3)c(C(=O)NCc3ccc(F)cc3)[nH]c2c1 | -16%
19 | COc1ccc(NC(=O)Cn2c(SCc3ccc(F)cc3)nc3cccnc32)cc1OC | -18%
20 | COCCCNC(=O)C1CCN(c2nnc(-n3cccc3CNc3ccc(C)cc3)s2)CC1 | 1%

Going on with the list.
no. | Molecule | miR-21 reporter
21 | O=C(CCC(=O)N1CC2CCCN2c2ccccc21)NCc1ccc(F)cc1 (centres undefined) | -3%
22 | COc1ccc(N(CC(=O)NCc2ccccc2Cl)S(=O)(=O)c2c(C)nn(C)c2C)cc1 | -6%
23 | CSc1cccc(NC(=O)CN2C(=O)COc3ccc(S(=O)(=O)N4CCC(C)CC4)cc32)c1 | 8%
24 | CCOc1ccc(CNCc2c(C(=O)O)n(Cc3ccc(C)cc3)c3cc(C)ccc23)cc1 | ?
25 | COc1ccc(-c2cc3ccc(O)c(CN4CCOCC4)c3oc2=O)cc1 | -48%
26 | COc1ccc(Nc2cc(C(=O)NCCc3ccc(C)cc3)c3ccccc3n2)c(OC)c1 | -4%
27 | Cc1ccc(C2c3c(-c4ccccc4O)n[nH]c3C(=O)N2CCc2ccccc2)cc1 (centres undefined) | ?
28 | Cc1ccc2c(=O)c(C(=O)c3ccc(F)cc3)cn(CC(=O)Nc3ccc4c(c3)OCCO4)c2n1 | -19%
29 | CN(Cc1ccccc1)S(=O)(=O)c1ccc2[nH]c3c(c2c1)CCCCC3 | 16%
30 | O=C1CSC2(C(=O)N(Cc3cccc(F)c3)c3ccccc32)N1c1cccc(C(F)(F)F)c1 (centres undefined) | 23%
31 | CCC(=O)N1CCc2cc(S(=O)(=O)CCC(=O)N3CCN(c4cc(C)ccc4C)CC3)ccc21 | -4%
32 | CC(=O)c1ccc(NC(=O)CSc2cn(CC(=O)N3CCCCCC3)c3ccccc23)cc1 | ?
33 | Cc1cc(=O)n2nc(N3CCC(C(=O)Nc4ccc(C(C)C)cc4)CC3)sc2n1 | 6%
34 | CCOc1ccccc1CNCCSc1nnnn1C | -2%
35 | COc1cccc(C(c2sc3nc(-c4ccco4)nn3c2O)N2CCC(C)CC2)c1 (centres undefined) | -2%
36 | CCc1c(C)c2ccc(O)c(CN3CCN(c4cc(Cl)ccc4C)CC3)c2oc1=O | -53%
37 | COc1ccc(CC(=O)Nc2ccc3nc(Nc4cccc(Cl)c4)cc(C)c3c2)cc1OC | ?
38 | Clc1cccc(-n2ncc3c(Nc4ccc5c(c4)OCCO5)ncnc32)c1 | -20%
39 | COc1ccc(C2C=C(c3ccc(Cl)cc3)Nc3nc(-c4ccc(Cl)cc4)nn32)cc1 (centres undefined) | ?
40 | CCc1nc2cccnc2n1-c1ccc(CC(=O)Nc2cccc(C)c2C)cc1 | -2%

Later entries:
no. | Molecule | miR-21 reporter
41 | COc1ccc(NC(=O)Cn2nnnc2-c2ccccc2F)c(C)c1 | 1%
42 | CSc1nn(CC(=O)Nc2cc(C)ccc2C)c(N)c1S(=O)(=O)c1ccccc1 | 15%
43 | Cc1ccc(Cl)cc1N1CCN(C(=O)c2cc3ccc4cccnc4c3[nH]2)CC1 | -8%
44 | Cc1ccc(-n2ncc(C(=O)NCCCN3CCCCC3)c2C2CCN(C(=O)OC(C)(C)C)CC2)cc1 | 3%
45 | NS(=O)(=O)c1ccc(CCNC(=O)c2ccc3nc(Cc4ccccc4)oc3c2)cc1 | -9%
46 | Cc1cn(C)c(CC(=O)NCc2ccc(Cl)cc2)c1C(=O)O | -5%
47 | CCCCCn1c(=O)c2c(nc3n2CCN3c2ccc(Br)cc2)n(C)c1=O | -7%
48 | Cc1cccc(NC(=O)c2sc3nc4n(c(=O)c3c2C)N=C(c2ccc(F)cc2)CS4)c1C | 0%
49 | O=C(NCCc1ccc(Cl)cc1)c1ccc(CS(=O)Cc2cccc(Cl)c2)o1 (centres undefined) | ?
50 | COC(=O)c1sc2cccc(F)c2c1S(=O)(=O)NCc1ccccc1Cl | 0%
51 | CCOCCCNC(=O)C(c1ccccc1)N(Cc1ccc2c(c1)OCO2)C(=O)c1ccc(NC(C)=O)cc1 (centres undefined) | 16%
52 | CC(C)c1ccc(Nc2c(-c3ccccn3)nc3ccccn23)cc1 | ?
53 | CCOC(=O)c1sc(NC(=O)c2cc(-c3ccc(F)cc3)on2)c(C(=O)OCC)c1C | 0%
54 | CCOc1ccc(C(=O)Nc2ccc3c(c2)OCCO3)cc1Br | -30%
55 | CCOc1ccc(NC(=O)Cn2c(=O)nc(-c3ccccc3)c3ccccc32)cc1 | 0%
56 | Cc1cc(C)cc(NC(=O)c2sc3nc4n(c(=O)c3c2C)N=C(c2ccccc2)CS4)c1 | -9%
57 | COc1ccc(CCNC(=O)c2sc3nc4n(c(=O)c3c2C)CCCC4)cc1OC | 5%
58 | COC(=O)c1c(-c2ccc(Cl)cc2)noc1N1CCN(c2ccc(C)cc2C)CC1 | -1%
59 | CCOc1ccc(N2CC(c3nc4ccccc4n3CCOc3ccccc3OC)CC2=O)cc1 (centres undefined) | -1%
60 | COc1ccc(NS(=O)(=O)c2ccc3c(c2)n(C)c(=O)c(=O)n3C)cc1Cl | 2%

The list goes on:
no. | Molecule | miR-21 reporter
61 | CCOC(=O)c1c(C)oc2nc(C)nc(NCc3ccccc3Cl)c12 | -5%
62 | COc1ccc(OCC(=O)NC2CC(=O)N(c3cccc(OC)c3)C2)cc1 (centres undefined) | 0%
63 | CC(C)c1ccc(NC(=O)CSC2=Nc3ccccc3C3=NC(CC(=O)NCc4ccco4)C(=O)N23)cc1 (centres undefined) | -16%
64 | CCOC(=O)c1cc(S(=O)(=O)NCc2ccc(C)cc2)[nH]n1 | -3%
65 | O=C(NCCc1ccc(Cl)cc1)c1ccc(CS(=O)(=O)c2ccc(Cl)cc2)o1 | 14%
66 | CCOC(=O)c1ccc(NC(=O)CC2C(=O)N(c3ccccc3)C(=O)N2Cc2cccs2)cc1 (centres undefined) | 0%
67 | CCc1ccc(NC(=O)C2CCN(c3cc(C)nc4c(-c5ccc(Cl)cc5)c(C)nn34)CC2)cc1 | 1%
68 | COc1cc(NC(=O)c2nnn(CC(=O)Nc3ccccc3)c2N)cc(OC)c1 | -25%
69 | O=C(CSC1=Nc2ccccc2N=C(c2ccc(F)cc2)C1)Nc1cccc(C(F)(F)F)c1 | 14%
70 | Cn1nc(-c2ccccc2)c(-c2ccccc2)c(C(=O)Nc2ccc(S(N)(=O)=O)cc2)c1=O | 17%
71 | COc1ccc(-c2[nH]ncc2C(=O)NCc2ccc(F)cc2)cc1 | 1%
72 | Cn1nnc2c(N3CCN(c4ccccc4Cl)CC3)ncnc21 | -17%
73 | CCc1nn(CC(=O)NCCOC)c(=O)c2cc3cc(F)ccc3n12 | -9%
74 | Cc1ccc(/C=C/c2onc(C)c2S(=O)(=O)N2CCC(C(=O)Nc3ccc(C)c(N(C)C)c3)CC2)cc1 | ?
75 | Cc1ccc(-c2nc(S(=O)(=O)c3ccccc3)c(N3CCN(c4ccccc4)CC3)o2)cc1 | -1%
76 | Cc1cccc(C)c1NC(=O)c1nc(SC(C)C)ncc1Cl | -7%
77 | O=C(Cc1ccc(-c2ccccc2)cc1)NCCS(=O)(=O)N1CCN(c2ccccc2)CC1 | 1%
78 | CN(C)S(=O)(=O)c1ccc2c(c1)N(CC(=O)Nc1ccc(OC(F)(F)F)cc1)C(=O)CS2 | 2%
79 | O=C(NCC1CCN(Cc2cccc(Cl)c2)CC1)c1cc2ccc3cccnc3c2[nH]1 | 0%
80 | Cc1ccc(OCc2nc(-c3ccc(C(=O)N4CCN(c5ccccc5F)CC4)cc3)oc2C)cc1 | 3%

Other results
no. | Molecule | miR-21 reporter
81 | O=[N+]([O-])c1cc(-c2nc(-c3ccccc3)no2)ccc1NCc1cccnc1 | 27%
82 | COc1cc(OC)c(NC(=O)N2CCc3cc(OC)c(OC)cc3C2CC(=O)O)cc1Cl (centres undefined) | -15%
83 | Cc1cc(C)c2oc(-c3cccc(NC(=O)c4ccc(-c5cccc([N+](=O)[O-])c5)o4)c3)nc2c1 | -13%
84 | Cc1ccc(CN2CCSc3ccc(C(=O)N4CCN(c5cccc(C)c5C)CC4)cc32)cc1 | 3%
85 | Cc1ccc(-n2nc(C)c3c(C(=O)NCc4ccccc4)cc(C4CC4)nc32)cc1 | -3%
86 | COc1ccccc1C(=O)NCc1nnnn1-c1ccc(C)c(C)c1 | 3%
87 | COc1cc(OC)c(NC(=O)N2CCc3c(sc4c3CCCC4)C2c2ccccc2)cc1Cl (centres undefined) | 3%
88 | COC(=O)c1ccc(CSc2nc3c([nH]c4ccccc43)c(=O)n2-c2ccc(OC)cc2)o1 | -5%
89 | COc1ccc(-c2nnc(SCC(=O)Nc3ccc(C(C)C)cc3)nc2-c2ccc(OC)c(OC)c2)cc1OC | 9%
90 | CC(C)Cc1nn2c(=O)cc(COC(=O)c3ccc(NC(=O)CCc4ccccc4)cc3)nc2s1 | 1%
91 | CC1=C(c2ccc(C(C)C)cc2)S(=O)(=O)N=C1N1CCC(C(=O)NCCc2ccco2)CC1 | 16%
92 | CCN(CC)C(=O)c1cc(-c2ccc(Cl)cc2)on1 | -67%
93 | COc1ccc(-c2[nH]ncc2C(=O)NCc2ccccc2OC)cc1 | -18%
94 | O=C(Nc1ccc(Cl)cc1F)c1cnc2sc(N3CCOCC3)nn2c1=O | -3%
95 | CC1Cc2cc(S(=O)(=O)CCC(=O)NCc3ccc(Cl)cc3)ccc2N1C(=O)C1CC1 (centres undefined) | 24%
96 | COc1ccc(S(=O)(=O)N(CC(=O)Nc2cccnc2)c2ccc(C)cc2)cc1OC | -1%
97 | COc1ccc(-c2noc(CSc3nnc(C)n3-c3ccc(F)cc3)n2)cc1 | 1%
98 | Cc1ccc2oc(-c3ccc(C)c(NC(=O)C(C)(C)Oc4ccc(Cl)cc4)c3)nc2c1 | -53%
99 | Cc1ccc(O)c(C2=Nc3ccccc3N=C(c3cccc(F)c3)C2)c1 | -2%
100 | CCc1ccccc1N(CC)C(=O)Cn1nc(Cc2ccncc2)c2ccccc2c1=O | 8%

Remaining list, next part:
no. | Molecule | miR-21 reporter
101 | Cc1ccc(Cl)cc1N1CCN(C(=O)c2cccn3c(=O)c4cc(Cl)ccc4nc23)CC1 | 5%
102 | Cc1ccccc1Nc1nc(-c2cccc(Cl)c2)c2c(n1)-c1ccccc1OC2 | -7%
103 | COc1ccc(C)cc1NS(=O)(=O)c1c(C(=O)N2CCC(C)CC2)c(C)n(C)c1C | -3%
104 | CCCN(CCC)C(=O)c1cc2c(=O)n3cccc(C)c3nc2n1C | -6%
105 | COC(=O)Cc1c(C)c2ccc3c(c2oc1=O)CN(Cc1ccc(C)cc1)CO3 | 2%
106 | CN(Cc1ccccc1)S(=O)(=O)c1nnc(NC(=O)c2ccccc2Cl)s1 | 3%
107 | Cc1nc(C)c(CCNS(=O)(=O)c2ccc(F)cc2)s1 | 0%
108 | Cc1nn2c(=O)cc(COC(=O)c3cccc(NC(=O)COc4ccccc4Cl)c3)nc2s1 | -2%
109 | COc1ccc(N2CCN(C(=O)c3ccc4nc(N5CCC(C)CC5)sc4c3)CC2)cc1 | -50%
110 | Cc1ccc(NC(=O)Cn2cc(S(=O)(=O)Cc3ccccc3)c3ccccc32)cc1C | -10%
111 | CCn1c(=O)cc(SCC(=O)NCc2ccc(F)cc2Cl)c2ccccc21 | 0%
112 | COc1ccccc1C(=O)Nc1c(C(=O)Nc2cc(Cl)ccc2C)sc2nc(C)cc(C)c12 | 0%

Retrieved by structure from the entries so far:
no. | Molecule | miR-21 reporter
55 | CCOc1ccc(NC(=O)Cn2c(=O)nc(-c3ccccc3)c3ccccc32)cc1 | 0%
72 | Cn1nnc2c(N3CCN(c4ccccc4Cl)CC3)ncnc21 | -17%
56 | Cc1cc(C)cc(NC(=O)c2sc3nc4n(c(=O)c3c2C)N=C(c2ccccc2)CS4)c1 | -9%
58 | COC(=O)c1c(-c2ccc(Cl)cc2)noc1N1CCN(c2ccc(C)cc2C)CC1 | -1%
93 | COc1ccc(-c2[nH]ncc2C(=O)NCc2ccccc2OC)cc1 | -18%

A portion of the library, so the mix of outcomes need not match the whole.
